Compound activity from PubChem BioAssay.
Sa growth 42C: blocks Staphylococcus aureus growth; S. aureus RN4220 growth, OD600, 20 h, 42 °C; hits give low values; relative growth, % (no concentration beside the values); 170,000 tested, 0.53% active; AID 720641;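 active = growth at 42 °C up to 50% and 20 or more points under that at 30 °C, or under 10% at both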;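 note: 300 nL library stock went into each well; scaled to the means of positive and negative controls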
GIV Gai3 FP: blocks GIV peptide binding to rat Galpha-i3 | 210,000 tested, 0.42% active | Galpha-i3/FITC-GIV peptide fluorescence polarization, 90 min; hits give low values; scaled: aluminum fluoride 0%, vehicle 100% | AID 1224905 | percent of control (FP), % (concentration not given with the values);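 active = replicate mean at 85% of control or lower, very high polarization wells dropped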;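 note: wells of about 15 µL received 100 nL stock; the first replicate is given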
Target sequence (P08753 whole entry, looked up): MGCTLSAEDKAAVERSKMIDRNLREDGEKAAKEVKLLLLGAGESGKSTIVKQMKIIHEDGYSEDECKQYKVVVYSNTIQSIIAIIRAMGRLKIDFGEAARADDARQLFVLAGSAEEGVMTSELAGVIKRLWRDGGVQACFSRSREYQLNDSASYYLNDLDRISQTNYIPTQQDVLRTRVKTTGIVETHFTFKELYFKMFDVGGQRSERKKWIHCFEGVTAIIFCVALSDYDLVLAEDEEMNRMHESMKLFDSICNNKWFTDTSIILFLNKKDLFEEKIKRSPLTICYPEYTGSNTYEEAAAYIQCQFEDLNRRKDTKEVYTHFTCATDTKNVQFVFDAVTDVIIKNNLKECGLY
HCMV NEC inh: cytomegalovirus nuclear egress complex inhibition; HTRF UL50-UL53 interaction, normalized percent inhibition; inhibition, % (no concentration beside the values); 190,000 tested, 0.15% active;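 active = both replicates at 50% or more, plus weaker picks with an unusually low signal ratio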;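 note: stock transfer was 100 nL into about 20 µL; 0% = negative control wells and 100% = wells with untagged competitor protein; inactives centre near -12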
Sa growth 42C second temp: recorded beside Sa growth 42C, whose call it bears; relative growth, %; measured here: growth at 30 °C;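 optical density after 20 h as mean of two plates; 100% = untreated growth and lower means inhibition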
Starred values were filed as active, the others as inactive; / = no result given; & = joins results of further samples.

SMILES	Sa growth 42C	Sa growth 42C second temp	GIV Gai3 FP	HCMV NEC inh
Cc1ccc(CN2C(=O)c3ccccc3C2C(=O)NC2CCCCCC2)cc1 (stereo not drawn)	103	90	102	-11
O=C(c1cnc2sccn2c1=O)N1CCN(c2ccccc2)CC1	92	86	100	-20
COc1cccc(OCCOc2ccc(/C=C3/C(=O)N(c4ccccc4)N=C3C)cc2OC)c1	/	/	105	7
CCCCOc1ccc(C2Oc3ccccc3C3CC(c4ccc(OC)cc4)=NN32)cc1 (stereo not drawn)	/	/	106	-2
Cc1cc(S(=O)(=O)NC2CCCCC2)ccc1OCC(=O)NCc1cccnc1	104	100	110	24
COC(=O)c1ccc(NC(=O)CCc2c(C)nc3c(c(C)nn3-c3ccc(C)cc3)c2C)cc1	111	76	101	-5
Cn1c(=O)[nH]c2cc(-c3noc(-c4ccc(F)cc4)n3)ccc21	104	96	111&98	/
O=C(NCc1cccc(Cl)c1)c1ccc(CS(=O)Cc2ccccc2Cl)o1 (stereo not drawn)	109	89	103	/
CCCNC(=O)N1CCc2cc(S(=O)(=O)NC(C)(C)CC)ccc21	/	/	102	-29
O=C(O)CCCCN1C(=O)c2ccccc2C1=O	100	91	/	-8
CCCc1nc2nc(C)c(NS(=O)(=O)c3ccc(OC)cc3)c(=O)n2[nH]1	/	/	107	8
OC(CSc1nncn1-c1ccccc1)C(O)C(O)c1cnn(-c2ccccc2)n1 (stereo not drawn)	99	95	/	-10
COc1cccc(/C=C/c2onc(C)c2S(=O)(=O)N2CCC(C(=O)N3CCCCC3)CC2)c1	109	106	107	/
CCOc1ccc(NC(=O)Cn2c(=O)cc(C)c3c(C)nn(C)c32)cc1	92	90	97	/
COc1ccc(NC(=O)C(C)Sc2ccccc2)cc1 (stereo not drawn)	101	106	96	-3
O=C(Nc1sc2c(c1C(=O)O)CCC2)c1cccnc1	121	90	/	-8
Cc1cccc2nc(=S)n(C(=O)c3ccc(F)cc3)n12	105	90	/	-3
Cc1cc(C(=O)CSc2nn3c(=O)c(C(C)(C)C)nnc3s2)c(C)n1C1CC1	95	73	/	-28
O=C1C2C(C(=O)N1CC1CCCO1)C1C=CC2C12CC2 (stereo not drawn)	96	77	101	-14
COc1ccccc1CCNC(=O)Cn1ccc2cc(S(=O)(=O)N3CCCCCC3)ccc21	83	92	100	/

Complete entries as entered above:
Cc1cccc2nc(=S)n(C(=O)c3ccc(F)cc3)n12 across the screens: Sa growth 42C = 105; Sa growth 42C second temp = 90; GIV Gai3 FP = /; HCMV NEC inh = -3
Cc1ccc(CN2C(=O)c3ccccc3C2C(=O)NC2CCCCCC2)cc1 (stereo not drawn) across the screens: Sa growth 42C = 103; Sa growth 42C second temp = 90; GIV Gai3 FP = 102; HCMV NEC inh = -11
CCCNC(=O)N1CCc2cc(S(=O)(=O)NC(C)(C)CC)ccc21 across the screens: Sa growth 42C = /; Sa growth 42C second temp = /; GIV Gai3 FP = 102; HCMV NEC inh = -29

Next compounds follow:
SMILES	Sa growth 42C	Sa growth 42C second temp	GIV Gai3 FP	HCMV NEC inh
CCOc1ccc2oc(=O)cc(CN3CCN(c4ccccc4OC)CC3)c2c1	82	81	102	-31
CC1(C)CC(=O)C2=C(C1)Nc1cc(C(=O)c3ccccc3)ccc1NC2c1cc2c(cc1[N+](=O)[O-])OCO2 (stereo not drawn)	/	/	108	-38
CCOC(=O)C1=C(C)Nc2nnnn2C1c1cccc([N+](=O)[O-])c1 (stereo not drawn)	/	/	109	-33
CC(=O)N1CCC2(CC1)OC(=O)C(C)=C2C(=O)N1CCN(C2CCCCC2)CC1	/	/	104	-1
CCC1CCCCN1S(=O)(=O)c1ccc(NC(=O)c2nc(SC)ncc2Cl)cc1 (stereo not drawn)	103	90	100	-16
Cc1cc(OCC(=O)c2cccc(C(F)(F)F)c2)n2cnnc2n1	81	87	100	-17
CCOc1nc(NCCN2CCOCC2)nc(NC(C)C)n1	105	88	100	-25
Cc1cc(=O)n2nc(NC(C)C(=O)NCCCc3ccccc3)sc2n1 (stereo not drawn)	105	85	102	/
CNC(=O)c1cccc(S(=O)(=O)N2CC(C)CC(C)C2)c1 (stereo not drawn)	99	91	/	-8
Cc1ccc(-c2nc3scc(CCNS(=O)(=O)c4ccc(C)c(C)c4)n3n2)cc1	115	86	97	/
CC(C)OC(=O)Cn1nc(C(F)(F)F)c2c1CCCC2	94	82	97	-27
O=S(=O)(c1cc(Cl)ccc1Cl)N1CCCCC1	109	91	106	-30
CSc1ncc(-c2ccc(Cl)cc2)[nH]1	108	91	99	-2
CCC(=O)Nc1ccc(-c2cc3ccccc3oc2=O)cc1	85	87	/	-39
CN(C)CCOC(=O)c1c[nH]c2ccccc12	105	87	105	-20
COc1ccc(CNS(=O)(=O)c2ccc3[nH]cc(C(=O)O)c(=O)c3c2)c(OC)c1	109	98	105	5
O=c1[nH]c(=O)n(-c2ccc(Cl)cc2)c(O)c1/C=N/n1cnnc1	94	94	277	-3
O=C1C2C3C=CC(C3)C2C(=O)N1c1ccc(S(=O)(=O)c2ccc(N3C(=O)C4C5C=CC(C5)C4C3=O)cc2)cc1 (stereo not drawn)	/	/	98	-23
CC(C)CN=CC1=C(O)CC(C)(C)CC1=O	106	85	98	/
O[C@H]1[C@H](O)[C@@H](O)[C@@H]2O[C@@H]2[C@@H]1O	97	93	100	-47

Sorted by SMILES length (largest number first): part of the list above.
SMILES	Sa growth 42C	Sa growth 42C second temp	GIV Gai3 FP	HCMV NEC inh
O=C1C2C3C=CC(C3)C2C(=O)N1c1ccc(S(=O)(=O)c2ccc(N3C(=O)C4C5C=CC(C5)C4C3=O)cc2)cc1 (stereo not drawn)	/	/	98	-23
CCCc1nc2nc(C)c(NS(=O)(=O)c3ccc(OC)cc3)c(=O)n2[nH]1	/	/	107	8
Cc1ccc(CN2C(=O)c3ccccc3C2C(=O)NC2CCCCCC2)cc1 (stereo not drawn)	103	90	102	-11
Cc1cccc2nc(=S)n(C(=O)c3ccc(F)cc3)n12	105	90	/	-3

Other entries follow.
SMILES	Sa growth 42C	Sa growth 42C second temp	GIV Gai3 FP	HCMV NEC inh
O=C(CSc1nnc2n1CCN2c1ccccc1)c1ccccc1	/	/	101	-33
O=C(Nc1ccc(F)cc1)c1oc2ccccc2c1NC(=O)C12CC3CC(CC(C3)C1)C2	97	87	99	-26
CS(=O)(=O)N1CCc2cc(C(=O)CSc3nc4ccccc4o3)ccc21	75	90	/	-17
O=C(COCc1cc(-c2cccs2)on1)Nc1cc(Cl)ccc1O	113	87	101	/
CN(CC(=O)N1CCCC1)S(=O)(=O)c1ccc(F)cc1	102	99	95	3
Cn1c(=O)n(C)c2cc(N3CCOCC3)c(NC(=O)c3sc4ccccc4c3Cl)cc21	/	/	107	-10
COc1ccc2c(c1)c(N1CCCC1=O)c(C(=O)Nc1ccc(OC)c(Cl)c1)n2C	115	84	101	/
O=C(CSC1=N/C(=C/c2ccco2)C(=O)N1c1ccccc1)Nc1nc2ccccc2s1	104	93	123	-15
COc1ccc(S(=O)(=O)N2CN(Cc3ccccc3)c3nc4ccccc4nc32)cc1	80	80	103	-21
O=C(CSc1nccc(=O)[nH]1)Nc1ccccc1Br	105	100	105	-4
NC(=O)c1cc(S(=O)(=O)NCC2CCC(C(=O)Nc3cccc(Cl)c3)CC2)cs1 (stereo not drawn)	90	93	99	/
CCOC(=O)c1cc2sccc2n1CC(=O)c1ccc2c(c1)OCCO2	74	102	108	-9
Cc1ccc(N(CC(=O)c2ccccc2)CC(=O)c2ccc(Cl)cc2)cc1	92	95	/	6
COc1ccc(CCn2c(C)cc(O)cc2=O)cc1OC	100	91	104	/
O=C(O)CCC(=O)N1N=C(c2ccccc2)CC1c1ccccc1Cl (stereo not drawn)	/	/	105	-21
CCn1c(SCc2cccc(C)c2)nnc1C(C)NC(=O)c1ccccc1 (stereo not drawn)	100	93	108	-19
Cc1ccc(N2C(=O)CS(=O)(=O)C23C(=O)N(Cc2ccc(Cl)cc2)c2ccccc23)cc1C (stereo not drawn)	122	93	104	/
CN(C)c1ccc(C(c2cc3c(cc2O)OCO3)N2CCCCC2)cc1 (stereo not drawn)	0.9*	-0.1*	/	2
Oc1cc2ccccc2cc1-c1nnc2n1-c1ccccc1SC2	75	95	/	-18
CC(C)C12CN3CC(C(C)C)(CN(C1)C3(C)C)C2=O	106	84	106	0
CC1Cc2cc(S(=O)(=O)N3CCCC3)ccc2N1C(=O)C1CCC1 (stereo not drawn)	100	83	101	-8
CNC(=O)c1cc2c(n(-c3ccccc3)c1=O)CC(C)(C)CC2=O	97	90	101	-4
Cc1cc(NC(=O)COCc2cc(-c3ccc4c(c3)OCO4)on2)nn1Cc1ccc(Cl)cc1	113	89	106	-13
O=C(c1cccc(Cl)c1)N1c2nc(-c3ccco3)nn2C2(CCCCC2)[C@@H]2CCCC[C@@H]21	105	85	98	-23
COc1ccccc1N1CCN(CC(=O)n2c3ccccc3c3ccccc32)CC1	101	82	105	-22
COc1ccccc1N1CCN(S(=O)(=O)c2cc3[nH]c(=O)c(=O)[nH]c3cc2C)CC1	132	89	104	/
CCCSc1ncccc1C(=O)Nc1ccc(OC(F)(F)F)cc1	94	104	101	6
O=C(Cn1cc(S(=O)(=O)N2CCCC2)ccc1=O)c1c[nH]c2ccccc12	88	95	/	-10
CCN(CC)S(=O)(=O)c1ccc2c(c1)nc(CCC(=O)OCN1C(=O)c3ccccc3C1=O)n2C	91	93	/	-22
COc1ccc(/C=C/C(=O)OCC(=O)Nc2cccc(Cl)c2)cc1	90	101	/	-17
CC(C)NC(=O)c1cc2c(ccc3ccccc32)o1	104	101	99	-102
COC(=O)c1ccccc1NC(=O)c1sc2nc(C)cc(C)c2c1NC(=O)c1ccccc1OC	101	94	100	/
CCOC(=O)c1cnc2cc(C(F)(F)F)ccc2c1N1CCCCCC1	106	87	97	/
CCn1c(CNC(=O)Cc2c(F)cccc2Cl)nnc1SC	103	86	104	-1
Cc1cc(C)n(-c2nc(CC(=O)N3CCCCC3)cs2)n1	/	/	100	-22
Cc1cc(C)n(C(C)CC(=O)NCc2ccccc2C)n1 (stereo not drawn)	107	103	105	/
CCc1cccc(NC(=O)CCn2nc(C)cc2C)c1	94	90	98	/
O=C1OC(c2ccccc2Cl)=N/C1=C/c1ccco1	118	87	/	-41
COc1cc(NC(=O)CS)cc(OC)c1	91	68	104	-13
O=C(COC(=O)Cc1c(Cl)cccc1Cl)NCC1CCCO1 (stereo not drawn)	116	88	/	-24
NC(=O)COC(=O)C1CCCN(C2=NS(=O)(=O)c3ccccc32)C1 (stereo not drawn)	85	89	/	-41
Cc1ccc(C2C(C#N)=C(N)OC3=C2C(=O)CC(C)(C)C3)s1 (stereo not drawn)	109	83	104	-38
CC(C)c1ccc(-c2cc(-c3nc(-c4ccccc4)no3)[nH]n2)cc1	/	/	106	-26
COc1ccccc1CN1CCNC(=O)C1CC(=O)O (stereo not drawn)	/	/	107	-8
CCc1cc(C(=O)N2CCOCC2)c(NC2=NS(=O)(=O)c3ccccc32)s1	73	87	98	/
Cc1ccc(NC(=O)CN(C)C(=O)COc2cccc(-n3cnnn3)c2)cc1	123	97	/	5
CC1(C)CC(=O)C(=Cc2cn(CCC#N)nc2-c2ccccc2)C(=O)C1	79	89	/	-7
CC(=O)OC1COC(N2CCc3ccccc32)C(OC(C)=O)C1OC(C)=O (stereo not drawn)	103	89	98	-8
COc1ccc(C2CC(=O)N(c3ccc(F)c(Cl)c3)C(=O)C2)cc1OC	/	/	103	15
COc1cccc(CNC(=O)c2c(C)oc3nc(C)nc(N4CCOCC4)c23)c1	87	85	98	/
COc1ccc(-c2cn3c(n2)CCC3)cc1	97	105	/	19
Cc1cc(C(=O)OCC(=O)NC2CCCCC2C)c2ccccc2n1 (stereo not drawn)	121	87	/	-28
COc1cc(OC)cc(-c2nc3nc(C)c(CCC(=O)Nc4ccc(C)cc4C)c(C)n3n2)c1	100	95	95	-4
CCNS(=O)(=O)c1ccc(-c2cc(C(=O)OCC)no2)s1	100	89	110	-36
O=C(O)c1ccccc1SCc1cc(=O)n2nc(-c3ccccc3Cl)sc2n1	/	/	107	9
Cc1cc(C(=O)Nc2ccc(F)cc2)c2c(C)nn(-c3ccccc3)c2n1	/	/	101	-20
COc1ccc(-c2nnc3sc(-c4c[nH]c5ccccc45)nn23)cc1OC	/	/	107	-15
Nc1nc(-c2cc3c(cc2Br)OCCO3)cs1	105	92	105	0
O=C(CN(c1ccc2c(c1)OCCO2)S(=O)(=O)c1ccccc1)N1CCCCCC1	111	75	106	-17
Clc1ccc(Nc2nc(-c3ccncc3)nc3ccccc23)cc1	/	/	97	-23
(next part)
SMILES	Sa growth 42C	Sa growth 42C second temp	GIV Gai3 FP	HCMV NEC inh
Cc1cc(C(=O)COC(=O)C2Cc3ccccc3CN2S(C)(=O)=O)c(C)n1-c1nccs1 (stereo not drawn)	103	90	/	-6
O=C1/C(=C/N(C(=O)c2ccco2)c2ccc([N+](=O)[O-])cc2)Sc2ccccc21	/	/	125	-69
CC(C)(C)C(=O)NC1CCN(C(=O)NCc2ccccc2)CC1	95	86	99	-21
CCCS(=O)(=O)c1ccc(C(=O)Nc2ccc(Cl)cc2)cn1	/	/	98	-1
O=C(NCC(c1cccs1)S(=O)(=O)c1ccc(Cl)cc1)C1CC1 (stereo not drawn)	104	82	102	-31
CC1=C(C(=O)Nc2ccccn2)C(c2cccc([N+](=O)[O-])c2)n2ncnc2N1 (stereo not drawn)	/	/	103	-55
